CtBP-E1A blk – qHTS Assay for Inhibitors of the CtBP/E1A Interaction; AlphaScreen GST-E1A/His-CtBP binding, 1536-well; stronger effect = lower value; control for the full effect not named in the record; activity change, % (test concentration not listed); 340,000 compounds, 0.49% hits; in the data active means activity change below about -65%; inconclusive means about -30% to -65%; inactive means above about -30%; note: % is set by controls: 0 for no effect and ±100 for the full control effect
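Protein mix (5X: 125 nM each GST-E1A, His-CtBP) was incubated with pinned compound 2 h at 37 deg C in dark, in 50 mM Tris pH 8.0 buffer with 300 mM NaCl. Glutathione donor and nickel acceptor beads followed; AlphaScreen signal read after 1 h.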
D2 PAM – Beta-Arrestin HTS for Positive Allosteric Modulators of the Human D2 Dopamine Receptor: Potentiators; D(2) dopamine receptor (Homo sapiens), P14416; DiscoveRx D2 beta-arrestin cells, luminescence, 90 min; 100% = 57 uM dopamine signal; potentiation, % (concentration not given with the values); 360,000 compounds, 0.23% hits; active = potentiation of 50% or more; inconclusive = 30% to 50%; inactive = 30% or less;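 note: tested on top of an EC20 dose of dopamine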
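PathHunter beta-arrestin assay in DiscoveRx D2 cells. Compounds were added with an EC20 of dopamine (50 nM final) for 90 min at 37 deg C. Luminescence was read 1 h after detection reagent, with 57 uM dopamine as the EC100 control.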
Six1-Eya2 inh – qHTS Assay for Inhibitors of the Six1/Eya2 Interaction; AlphaScreen GST-Six1/His-Eya2 binding, biochemical; stronger effect = lower value; control for the full effect not named in the record; activity change, % (no concentration beside the values); 360,000 compounds, 0.56% hits; in the data active = activity change below about -65%; inconclusive = about -30% to -65%; inactive = above about -30%; note: % is set by controls: 0 for no effect and ±100 for the full control effect
Target sequence (O00167 whole entry, looked up): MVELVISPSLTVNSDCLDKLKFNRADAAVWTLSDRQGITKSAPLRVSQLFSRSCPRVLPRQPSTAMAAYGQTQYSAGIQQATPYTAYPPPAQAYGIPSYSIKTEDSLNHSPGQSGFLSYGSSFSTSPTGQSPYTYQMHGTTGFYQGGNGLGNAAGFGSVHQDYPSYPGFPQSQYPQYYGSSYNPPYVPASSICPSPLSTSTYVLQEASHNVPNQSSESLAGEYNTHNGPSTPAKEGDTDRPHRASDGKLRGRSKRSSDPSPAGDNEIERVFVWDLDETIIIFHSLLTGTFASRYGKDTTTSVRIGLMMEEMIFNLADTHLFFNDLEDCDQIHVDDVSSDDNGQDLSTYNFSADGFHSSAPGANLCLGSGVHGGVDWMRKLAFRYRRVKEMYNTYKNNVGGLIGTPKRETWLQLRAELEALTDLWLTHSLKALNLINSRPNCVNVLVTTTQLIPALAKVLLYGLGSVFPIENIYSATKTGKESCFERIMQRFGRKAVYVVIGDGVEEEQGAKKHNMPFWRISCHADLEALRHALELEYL
Target sequence (Q15475 whole entry, looked up): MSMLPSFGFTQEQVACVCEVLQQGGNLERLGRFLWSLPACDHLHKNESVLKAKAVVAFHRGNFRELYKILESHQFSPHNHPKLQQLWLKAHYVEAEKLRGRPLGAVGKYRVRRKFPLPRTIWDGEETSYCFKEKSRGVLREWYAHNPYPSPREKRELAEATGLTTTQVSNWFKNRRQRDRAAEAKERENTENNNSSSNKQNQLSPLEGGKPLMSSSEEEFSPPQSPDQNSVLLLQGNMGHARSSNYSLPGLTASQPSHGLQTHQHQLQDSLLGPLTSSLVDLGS
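Compounds are tested against tagged Six1 and Eya2 proteins bridged by glutathione donor and nickel acceptor beads; after a one-hour incubation at 37 °C without light, AlphaScreen emission is recorded.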
TRPV1 potentiator – HTS Assay for Compounds that Act as Potentiators of the Vanilloid Receptor 1; Transient receptor potential cation channel subfamily V member 1 (Homo sapiens), Q8NER1; TRPV1-expressing cells, Fluo-8 calcium influx, capsaicin EC20 potentiation; host cell line not named in the record; control for the full effect not named in the record; potentiation, % at 8.33 µM; 320,000 compounds, 0.02% hits; AID 540277, 2011; active means potentiation above 80%; inconclusive means 30% to 80%; inactive means below 30%; note: 0% is about no effect
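Fluo-8 calcium influx in TRPV1-expressing cells, kinetic read (ex 480/em 520 nm). Compound added and read 3 min for agonist activity, followed by capsaicin at EC20 final and 2 min further read for enhancement.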
TRPML1 ag – qHTS for Agonists of the Human Mucolipin Transient Receptor Potential 1 (TRPML1) | TRPML1-expressing cells, Ca2+ dye fluorescence, FDSS; host cell line not named in the record; reference of the full effect not given here | activation, % (no concentration beside the values) | 410,000 compounds, 0.12% hits; in the data active = activation above about 50%; inconclusive = about 30% to 50%; inactive = below about 30%; note: 0% is about no effect; the text of the record puts the active cut at 80%
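In this qHTS format, compounds were pin-transferred onto Ca8-dye-loaded TRPML1-DL cells induced with Tet overnight, and intracellular Ca2+ fluorescence was recorded kinetically for 110 s after a 10 s baseline. A subsequent 4uM final 54-4 (EC80) addition followed by a second 110 s read served as the antagonist phase.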
TRPML1 inh – qHTS for Inhibitors of the Human Mucolipin Transient Receptor Potential 1 (TRPML1); TRPML1-inducible cells, Ca2+ dye fluorescence, FDSS; stronger effect = lower value; inhibition of EC80 agonist-evoked calcium signal; activity change, negative = inhibition, % (test concentration not listed); 390,000 compounds, 0.02% hits; in the data active means activity change below about -50%; inconclusive means about -30% to -50%; inactive means above about -30%;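 note: stimulus is agonist 54-4 at its EC80 concentration; % is set by controls: 0 for no effect and ±100 for the full control effect; compound concentration not given in the record; the text of the record puts the active cut at -80%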
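TRPML1-DL cells, Tet-induced overnight (~16 h, 37 °C) at 1,500 cells/well, were loaded with Ca8 no-wash dye plus quencher for 45-90 min at room temperature. Compounds were pinned during FDSS kinetic reading; agonist 54-4 at EC80 (4 uM final) then added.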
* = called active by the depositor; ? = inconclusive; / = not tested or not shown. Not a hit list, and some 0.95% of all compounds hit somewhere here.

SMILES	CtBP-E1A blk	D2 PAM	Six1-Eya2 inh	TRPV1 potentiator	TRPML1 ag	TRPML1 inh
COCCNC(=O)C1(C)CCCN(C(=O)c2ccc(C(F)(F)F)cc2)C1 (stereo not given)	1	-10	4	/	-0.4	/
O=C(Nc1ccc(F)cc1)c1ccc(=O)[nH]n1	4	-3	9	12	-0.4	-4
CCOC(=O)C1CCCN(S(=O)(=O)c2ccc(-n3cnnn3)c(C)c2)C1 (stereo not given)	1	0	5	-27	-0.2	-3
CCN(CC(=O)NCc1cccs1)C(=O)c1ccc(S(=O)(=O)N(C)C)cc1	-14	-5	4	2	-0.7	-10
O=C(CSc1nnc(Cn2c(=O)sc3ccccc32)n1CCc1ccccc1)N1CCOCC1	-7	-8	-2	-25	-0.1	5
FC(F)(F)c1ccccc1Cc1c(C2CCCCC2)nc2c3ccccc3ccn12	-11	-7	?	/	0.0	/
Nc1nc2ccccc2n1/N=C/c1ccc(Br)cc1	7	-7	-11	23	0.9	-1
CC1CCCC(C)N1C(=O)COC(=O)CN1C(=O)c2ccccc2C1=O (stereo not given)	3	-2	-4	/	-0.1	27
Cc1cc(C(=O)CSc2nnc(N)s2)c(C)n1CCc1ccc(F)cc1	-10	-14	-29	-16	1.4	-1
CC[C@]12c3[nH]c4ccc(Cl)cc4c3CCN1C(=O)[C@@H](CC(=O)NCC13CC4CC(CC(C4)C1)C3)C[C@@H]2C(=O)N1CCN(C(=O)c2ccco2)CC1	-30	-4	-13	/	6.5	-9
O=C1c2cccnc2C(=O)N1Cc1ccco1	-9	-13	-10	-5	-0.4	3
CC(C)(C)c1ccc(C(=O)N2CCC(C(=O)NCc3ccncc3)CC2)cc1	2	1	1	-15	0.2	11
O=C(Nc1ccccn1)C1(c2ccccc2)CCCC1	8	-9	5	-13	1.1	14
O=C(CN(Cc1ccccc1)S(=O)(=O)c1ccc(F)cc1)NCc1cccnc1	-10	-11	4	-16	1.0	29
C#CCNC(=O)c1cc2c(Br)ccc(Br)c2nc1N	-23	/	10	/	0.3	/
CC(=O)Nc1ccc(-c2csc(Nc3ccc(S(N)(=O)=O)cc3)n2)cc1	-14	0	-1	4	-1.3	-8
CCOc1nc(C)ccc1-c1noc(C)n1	-10	-13	-2	?	0.1	-13
O=C(Cn1cc(C(F)(F)F)cc(Cl)c1=O)NCC1COc2ccccc2O1 (stereo not given)	/	-1	1	8	-0.1	0
CC(C)(C)c1ccc(OCc2nc(-c3ccccn3)no2)c(Br)c1	11	-21	5	7	8.0	22
COc1cc(F)c(C2=CC(=O)C[C@H](c3ccc4c(c3)OCO4)C2)cc1F	/	-9	-6	-2	-0.3	1
C=C1Cn2c(nnc2-c2ccc(Cl)cc2)S1	4	1	-3	/	0.2	-1
O=C(COC(=O)c1cccs1)Nc1ccc(F)c(F)c1	5	-4	6	-8	-0.2	2
Cc1noc(-c2ccccc2)c1NC(=O)Nc1ccc(Cl)cc1	2	-9	-2	-9	-0.2	-4
C[C@@H]1CN([C@H](C)CO)C(=O)Cc2cc(NC(=O)CCC(F)(F)F)ccc2O[C@@H]1CN(C)S(=O)(=O)c1ccccc1	-2	-1	5	/	0.9	-4
CN1CCN(C(=O)c2cnn3c(C(F)F)cc(C4CC4)nc23)CC1	8	-8	13	5	-0.2	-11
CC(=O)N1CCN=C1SCc1ccc(Cl)cc1	3	-9	1	24	-0.2	10
CCOC(=O)C(Sc1cc(C)nc(N)n1)C(C)=O (stereo not given)	25	-20	15	20	-0.1	-3
NC(=O)c1cccc(-c2cccc3nccn23)c1	1	-4	-1	/	0.3	5
CCN1C(=O)[C@H]2[C@@H](c3ccc(-c4ccc(OC)cc4)cc3)N[C@@](Cc3ccccc3)(C(=O)OC)[C@H]2C1=O	1	-18	2	21	-0.7	-11
O=c1oc2ccccc2c(NC2CCCCC2)c1NS(=O)(=O)c1ccc(F)cc1	6	-5	-1	-18	0.2	-13
COc1ccc(C(=O)NCCCCCC(=O)O)cc1OC	3	-12	-2	1	-0.8	-4
COc1ccc(CCNC(=O)c2oc3ccc(OC)cc3c2C)cc1	-16	-11	-3	23	0.7	0
CN(CC(=O)Nc1cc(S(=O)(=O)N2CCCC2)ccc1Cl)Cc1ccc2c(c1)OCO2	-16	-8	-9	-13	0.8	24
O=C(CCC(=O)N1CCN(Cc2ccccc2)CC1)Nc1nnc(C2CCCCC2)s1	2	-7	2	0	0.2	-10
CN(Cc1nc(-c2cccs2)no1)CC1(N2CCOCC2)CCCCC1	/	2	5	-17	0.7	?
CCOC(=O)c1ccc(NC2Nc3cc(C)nn3S2)cc1 (stereo not given)	-1	-2	4	4	-0.9	-8
COc1ccc(CC(=O)Nc2ccc(N(C)C)c3ccccc23)cc1	2	-4	-6	-3	0.5	8
O=C(Nc1ccc(S(=O)(=O)N2CCCC2)cc1)Nc1ccc(F)cc1F	-9	-14	-2	/	-0.4	4
COc1ccc(C2CC(=O)Oc3cc(OC)c(OC)c(OC)c32)cc1 (stereo not given)	-10	-1	-3	/	-1.0	1
CNc1nc(Nc2ccc(C)c(Cl)c2)nc(N)c1[N+](=O)[O-]	14	-14	12	-1	3.4	37
O=C(NC1CCOCC1)C1CCC(=O)N(CCc2ccc(Cl)cc2)C1 (stereo not given)	6	-2	1	-4	-0.7	1
COc1ccc(NC(=O)c2ccc(NC(=O)c3cccnc3)cc2)cc1	1	12	-8	/	-0.6	23
O=C1C2CCCCN2C(=O)N1CCCCN1CCN(c2ccc(F)cc2)CC1 (stereo not given)	-20	-4	10	-9	-0.3	10
CC1Cc2cc(S(=O)(=O)N3CCCC(C(=O)N4CCCCC4)C3)ccc2N1C(=O)C1CC1 (stereo not given)	/	-13	1	-2	0.9	-9
Cc1[nH][nH]c(=O)c1C(c1ccc(-c2ccc(Cl)c(Cl)c2)o1)c1c(C)[nH][nH]c1=O	1	-7	-15	16	3.3	14
S=c1[nH]nc(Nc2ccccc2Cl)s1	0	-12	2	14	0.3	32
COC(Cc1nnc(SC)n1-c1ccccc1)OC	-5	-2	3	5	0.7	-6
Cc1cccc(OCC(=O)N2CCC(N3CCCCCC3)CC2)c1	-2	-12	9	4	0.2	-1
COc1ccc(-c2nc(CS(=O)CC(=O)NCCCN3CCCC3)c(C)o2)cc1OC (stereo not given)	-2	-13	-2	15	-0.5	1
Cc1ccc(C)c(NC(=O)CN(C)C(=O)c2ccccc2OCc2ccccc2Cl)c1	-4	4	-8	2	0.6	7
COc1cccc(C(=O)NCCC(=O)NCc2cc(=O)n(C)c(=O)n2C)c1	2	5	4	17	-0.2	-16
O=[N+]([O-])c1ccc(OCCOc2ccccc2/C=N/n2cnnc2)cc1	/	-10	10	17	0.8	9
Cc1ccc(N2CC(C(=O)Nc3ccc(N4CCOCC4)cc3)CC2=O)cc1C (stereo not given)	0	-2	-4	-7	-0.4	9
Cc1sc(Nc2ccc([N+](=O)[O-])cc2)nc1-c1c(C)n(C)n(-c2ccccc2)c1=O	2	-6	5	-15	0.9	-6

Structural class: the entries above with an aryl methoxy group.
SMILES	CtBP-E1A blk	D2 PAM	Six1-Eya2 inh	TRPV1 potentiator	TRPML1 ag	TRPML1 inh
COc1cc(F)c(C2=CC(=O)C[C@H](c3ccc4c(c3)OCO4)C2)cc1F	/	-9	-6	-2	-0.3	1
CCN1C(=O)[C@H]2[C@@H](c3ccc(-c4ccc(OC)cc4)cc3)N[C@@](Cc3ccccc3)(C(=O)OC)[C@H]2C1=O	1	-18	2	21	-0.7	-11
COc1ccc(C(=O)NCCCCCC(=O)O)cc1OC	3	-12	-2	1	-0.8	-4
COc1ccc(CCNC(=O)c2oc3ccc(OC)cc3c2C)cc1	-16	-11	-3	23	0.7	0
COc1ccc(CC(=O)Nc2ccc(N(C)C)c3ccccc23)cc1	2	-4	-6	-3	0.5	8
COc1ccc(C2CC(=O)Oc3cc(OC)c(OC)c(OC)c32)cc1 (stereo not given)	-10	-1	-3	/	-1.0	1
COc1ccc(NC(=O)c2ccc(NC(=O)c3cccnc3)cc2)cc1	1	12	-8	/	-0.6	23
COc1ccc(-c2nc(CS(=O)CC(=O)NCCCN3CCCC3)c(C)o2)cc1OC (stereo not given)	-2	-13	-2	15	-0.5	1
COc1cccc(C(=O)NCCC(=O)NCc2cc(=O)n(C)c(=O)n2C)c1	2	5	4	17	-0.2	-16

Some of the entries so far, bar-delimited.
Molecule | CtBP-E1A blk | D2 PAM | Six1-Eya2 inh | TRPV1 potentiator | TRPML1 ag | TRPML1 inh
O=C(NC1CCOCC1)C1CCC(=O)N(CCc2ccc(Cl)cc2)C1 (stereo not given) | 6 | -2 | 1 | -4 | -0.7 | 1
COc1ccc(NC(=O)c2ccc(NC(=O)c3cccnc3)cc2)cc1 | 1 | 12 | -8 | / | -0.6 | 23
